# From PubChem
# Rango complex inh – Rango-importin beta binding inhibition; Q14974; Rango CFP/YFP FRET sensor + importin beta, 45 min; Potency, µM (top dose mostly 92.2 µM), for the others: top-dose inhibition of complex formation; 340,000 compounds, 0.031% hits; active = rising FRET ratio curve, often small or poorly fitted; inconclusive = mostly compound fluorescence or quenching in the first reads; inactive = flat curves in all reads;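 note: potency is the fitted concentration of half-maximal effect; 0% = DMSO wells and 100% = buffer wells lacking importin beta; nearly all actives have a fitted effect of over 15% in size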
# Target sequence (Q14974 whole entry, looked up): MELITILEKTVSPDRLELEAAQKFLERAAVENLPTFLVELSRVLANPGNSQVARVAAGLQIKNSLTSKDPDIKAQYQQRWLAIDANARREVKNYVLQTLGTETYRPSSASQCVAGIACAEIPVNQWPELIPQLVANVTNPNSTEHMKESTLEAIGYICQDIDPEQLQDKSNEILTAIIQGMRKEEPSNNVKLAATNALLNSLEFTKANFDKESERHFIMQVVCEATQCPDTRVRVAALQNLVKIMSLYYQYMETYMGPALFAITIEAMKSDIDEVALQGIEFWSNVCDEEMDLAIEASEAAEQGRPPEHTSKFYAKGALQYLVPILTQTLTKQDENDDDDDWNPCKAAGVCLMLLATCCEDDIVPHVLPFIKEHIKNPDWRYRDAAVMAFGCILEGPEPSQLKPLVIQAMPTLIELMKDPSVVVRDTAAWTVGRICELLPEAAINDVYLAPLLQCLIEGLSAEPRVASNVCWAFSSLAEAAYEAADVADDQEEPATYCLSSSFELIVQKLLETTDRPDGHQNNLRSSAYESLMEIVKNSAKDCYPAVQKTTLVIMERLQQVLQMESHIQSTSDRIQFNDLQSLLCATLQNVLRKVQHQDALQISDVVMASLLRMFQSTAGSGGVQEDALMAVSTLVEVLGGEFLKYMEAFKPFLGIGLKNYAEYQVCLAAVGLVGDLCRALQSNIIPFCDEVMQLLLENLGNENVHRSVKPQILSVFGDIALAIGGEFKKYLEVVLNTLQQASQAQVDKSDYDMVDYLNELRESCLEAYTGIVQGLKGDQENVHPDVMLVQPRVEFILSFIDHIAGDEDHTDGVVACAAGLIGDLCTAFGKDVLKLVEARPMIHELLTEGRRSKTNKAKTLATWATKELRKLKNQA
#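 FRET biosensor (snurportin 1 IBB flanked by EYFP and cerulean), 50 nM, with compound 5 min, then 0.125 microM importin beta in PBS, 1 mM DTT, 0.02% Tween-20, 0.1% BSA. CFP/YFP ratio read after 45 min at room temperature; pre-read flags interference.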
# Rango release inh – inhibition of RanGTP-driven Rango-importin beta dissociation. O95149+P62826. Biochemical FRET Rango-importin beta, RanGTP-induced dissociation. Potency, µM (titrated, usually from 46.1 µM), for the others: at the top dose activity change, negative = inhibition. 340,000 compounds, 0.071% hits; active means falling FRET ratio curve, often poorly fitted, with flat reads before Ran was added; inconclusive means other falling curves, or compound fluorescence or quenching; inactive means flat or rising ratio curve;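 note: potency is the fitted concentration of half-maximal effect; % of control where 0% means no effect; nearly all actives have a fitted effect of over 45% in size; -100% = wells without RanGTP and RCC1; the record marks most hits as doubtful in a second field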
#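 Compounds preincubate 5 min with complex of recombinant Rango and importin beta in PBS with 1 mM DTT. Ran (0.6 uM) loaded with 2 mM GTP plus 0.2 uM RCC1 starts dissociation; FRET is recorded 45 min later.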
# GLA inh pH 4.5 – inhibitors of human alpha-galactosidase A at pH 4.5; P06280; purified enzyme, 4-MU-alpha-Gal fluorescence, pH 4.5; activity change, negative = inhibition, % at 105 µM; 230,000 tested, under 10 active; AID 1467; inconclusive = small, poorly fitted or top-dose-only inhibition, or a rising curve; inactive = flat fitted curve, though single readings scatter; no compound was filed as active;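 note: 0% = full activity with enzyme and -100% = basal without enzyme; dose as in the result columns while the protocol names 77 µM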
# miR-21 reporter – raises the signal of a miR-21 reporter; HeLa miR-21 FLuc reporter, luciferase, 48 h; Potency, µM (series often up to 38.3 µM), for inactives: at the highest dose reporter change, positive = more light; 340,000 tested, under 10 active; AID 2288; active = well fitted rising curve with a large enough effect; inconclusive = small, poorly fitted or top-dose-only effect; inactive = no such curve, though single readings can be large or run the other way;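 note: % of control where 0% means no effect; miR-21 action dims this reporter so a rising signal means less miR-21 action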
#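 Compounds were titrated across several concentrations (up to approximately 40 uM) and incubated 48 hours with HeLa miR-21-FLuc reporter cells (miR-21 target sequence downstream of FLuc, endogenous miR-21). Readout was firefly luciferase luminescence after lytic detection reagent.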
# Starred values were filed as active, the others as inactive; ? = inconclusive; / = no result given; & = joins results of further samples; [ ] = another dose, or the depositor's remark.
Rango complex inh,Rango release inh,GLA inh pH 4.5,miR-21 reporter,compound
1.6%,1%,-2,-4%,O=C(CSc1nnc(-c2cccnc2)n1Cc1ccccc1)N1CCOCC1
0.2%,26%,/,-1%,COc1ccccc1CCN=C(N)NS(=O)(=O)c1ccccc1F
-0.4%,11%,-2,-40%,C=CCc1c(C)[nH]c2ccc(C)cc2c1=O
4.2%,-5%,6,-4%,CCc1ccc(NC(=O)COC(=O)c2ccc(Cl)c(S(=O)(=O)N3CCCCCC3)c2)cc1
2.9%,8%,-2,12%,O=C(NCC(=O)N(Cc1cccs1)C(C(=O)NC1CCCCC1)c1ccco1)c1ccco1 (centres undefined)
-1.9%,-8%,/,-2%,C=CCNC(=O)CN1C(=O)NC(C)(c2ccc(OC)cc2)C1=O (centres undefined)
1.8%,1%,5,0%,COC(=O)NCN1C(=O)C2C3C=CC(C3)C2C1=O (centres undefined)
2.5%,-15%,-9,0%,CC(=O)OCCN1C(=O)c2cccnc2C1=O
0.0%,-15%,-2,5%,CC(C)C(NS(=O)(=O)c1ccc2c(c1)oc(=O)n2C)C(=O)N1CCN(C2CCCCC2)CC1 (centres undefined)
1.6%,-5%,4,-39%,CCOC(=O)N/N=C\c1ccc(C)s1
-2.0%,1%,1,1%,CCCCn1c(=O)c(CCC(=O)OCC(=O)Nc2cc(Cl)ccc2OC)nc2ccccc21
?,-5%,2,-33%,COc1ccc(OCC(=O)Nc2ccccc2OC)cc1
0.2%,13%,0,16%,CCCCn1c(-c2csc3c2CCC(C)C3)n[nH]c1=S (centres undefined)
2.6%,6%,2,-5%,CN1CCN(NC(=O)C23CC4CC(CC(C4)C2)C3)CC1
0.2%,-1%,-23,-53%,COc1cccc(NC(=S)N/N=C2/CCCCc3ccccc32)c1
2.1%,10%,-6,-2%,CN(C(=O)c1ccc(=O)[nH]c1)C1(C(=O)NC2CCCCC2)CCCCC1
-0.1%,0%,-4,-4%,COc1cc(/C=C/C(=O)NC(C)C)ccc1OCc1ccccc1
?,?,-6,-81%,NC(=O)c1sc2nc(-c3ccco3)ccc2c1N
-5.5%,15%,5,-6%,CN(C(=O)CSCC(=O)O)C1CCCCC1
3.3%,4%,/,8%,CC(C)c1ccc(NC(=O)C2C3C=CC4(O3)C2C(=O)N(CCN2CCOCC2)C4C(=O)NC2CCCCC2)cc1 (centres undefined)
0.1%,-5%,/,0%,COC(=O)Nc1ccc(S(=O)(=O)NC2CCCCC2)cc1
-0.8%,2%,/,/,O=C(O)/C=C/C(=O)Nc1cccc2c1-c1ccccc1C2=O
6.1%,-11%,/,-3%,CC1CCCCC1NC(=O)c1cn(C)c2ccc(S(=O)(=O)N3CCOCC3)cc2c1=O (centres undefined)
-2.7%,-12%,/,/,O=C(CN1CCN(S(=O)(=O)c2cccs2)CC1)NCC1CCCCC1
-2.1%,-9%,/,-3%,Cc1nn(C)c(C(=O)N/N=C/c2cccnc2)c1Cl
-3.0%,15%,-15,-2%,CCN1C(C(=O)c2ccccc2)=C(Nc2ccccc2C)c2ccccc2S1(=O)=O
-3.1%,-1%,7,2%,O=C(CCN1CCN(c2ccccc2)CC1)Nc1cccc(Br)c1
0.6%,0%,/,/,CCOC(=O)C1=C(C)NC(C)=C(C(=O)OCC)C1C(=O)OCC(=O)N1CCOCC1
-4.3%,-22%,3,21%,COc1cccc(Nc2nc(NCCO)c3ccccc3n2)c1
-0.3%,-12%,0,-23%,CCOn1c(=O)c(-c2ccc(OC)cc2)[n+]([O-])c2ccccc21
-1.6%,4%,-6,-12%,O=C(CCc1ccccc1)Nc1nnc(-c2ccc3c(c2)CCCC3)o1
-1.8%,-1%,6,-7%,CCN(CC)S(=O)(=O)c1ccc(C(=O)Oc2coc(CSc3nc(C)cc(C)n3)cc2=O)cc1
-1.6%,-15%,10,-6%,COc1ccc2cc(C3C(C#N)=C(N)OC(C)=C3C(C)=O)c(Cl)nc2c1 (centres undefined)
-2.0%,-7%,-4,-1%,OCCC1CN(Cc2cnc(-c3ccc(Cl)cc3)nc2)CCN1C1CCCC1 (centres undefined)
0.3%,-25%,/,-2%,COc1ccc(S(=O)(=O)N2CCNC(=O)CC2)cc1
/,/,17,-5%,Cc1ccc2nc3c(cc(C#N)c(=O)n3CCN3CCOCC3)c(=O)n2c1
1.1%,-5%,4,1%,C=C(C)CN(CC)C(=O)CC1C(=O)NCCN1CC(C)(C)C (centres undefined)
-1.6%,-12%,-1,1%,CCOC(=O)CN(C(=O)CN1CCC(n2nnc3cc(C)ccc32)CC1)c1ccccc1
5.2%,3%,/,/,O=C(CCS(=O)(=O)c1ccccc1F)Nc1ccc(N2CCN(Cc3ccccc3)CC2)cc1
-1.6%,1%,3,-37%,CC(=O)NNc1ncnc2c1cnn2-c1ccc(C)cc1
-3.1%,2%,-13,-5%&-2%,Cc1ccc(-c2c(C(=O)NCc3ccccc3)oc(=O)c3ccccc23)cc1
-2.8%,-12%,/,-32%,CCc1sc(C(=O)Nc2ncccc2C)cc1C
-2.8%,18%,-4,-5%,CCOC(=O)N1CCN(CCC(=O)Nc2ccc(OC)cc2OC)CC1
-1.4%,6%,4,-2%,O=C(Nc1ccccc1)c1cccc(N2C(=O)CCC2=O)c1
?,7%,-4,-13%,Cc1ccn2cc(CCNS(=O)(=O)c3ccc4c(c3)CCCC4)nc2c1
-0.5%,7%,-1,-7%,CC(C(=O)Nc1ccc2c(c1)OCO2)c1ccc([N+](=O)[O-])cc1 (centres undefined)
0.4%,3%,-7,2%,O=C1c2cccnc2-c2ncccc21
-2.1%,3%,2,-4%,CCOc1ncccc1C(=O)N(C)CC(=O)Nc1ccc(C)cc1
0.3%,-1%,6,-21%,Fc1ccc(CSc2nnc3ccc(-c4ccncc4)nn23)cc1
0.4%,6%,-3,4%,O=C1CC(N2CCOCC2)C(=O)N1CCN1C(=O)CC(N2CCOCC2)C1=O (centres undefined)
-0.3%,27%,/,/,Cc1ccc(S(=O)(=O)n2nc(OC(=O)c3ccco3)cc2N)cc1
-0.4%,3%,-26,1%,Cc1cccc(NC(=S)N2CCC(C(=O)c3ccc(F)cc3)CC2)c1C
-2.7%,31%,4,-38%,Cc1cccc(NC(=O)Nc2ccc3c(c2)OCO3)n1
-1.4%,1%,-2,-4%,CC(C)CCn1nnnc1C(C(C)C)N1CCC(C(N)=O)CC1 (centres undefined)
-0.9%,-6%,-3,-17%,COc1ccc2c(c1)-c1nc(N)sc1CC2
?,?,-1,-3%,Cc1nc(S/C(=C/c2ccc(-c3cc(Cl)ccc3C)o2)C(=O)O)n[nH]1
-4.5%,4%,/,-1%,Cc1cc(NC(=O)CCC(=O)N(c2cccc(F)c2)C(C(=O)NC2CCCC2)c2ccccc2)no1 (centres undefined)
-0.6%,-7%,-5,14%,COc1ccc2c(c1)CCc1cc(C(=O)N3CCN(c4ccc(N5CCOCC5)nn4)CC3)sc1-2
-3.6%,-7%,/,0%,COc1ccc(/C=C2/Sc3ccc(C(=O)N4CCOCC4)cc3NC2=O)cc1OC
2.6%,0%,-3[21.1 µM],-2%,Cc1ccc(-c2nc(-c3ccc(Cl)cc3)sc2CC(=O)O)c(C)c1

# Shown with bars between the fields: entries from further up
molecule | Rango complex inh | Rango release inh | GLA inh pH 4.5 | miR-21 reporter
CCN(CC)S(=O)(=O)c1ccc(C(=O)Oc2coc(CSc3nc(C)cc(C)n3)cc2=O)cc1 | -1.8% | -1% | 6 | -7%
O=C(Nc1ccccc1)c1cccc(N2C(=O)CCC2=O)c1 | -1.4% | 6% | 4 | -2%
CN1CCN(NC(=O)C23CC4CC(CC(C4)C2)C3)CC1 | 2.6% | 6% | 2 | -5%

# Further results
Rango complex inh,Rango release inh,GLA inh pH 4.5,miR-21 reporter,compound
-1.9%,-7%,-1,-5%,Cc1ccc(S(=O)(=O)NCCNC(=O)C2CCCNC2=O)cc1 (centres undefined)
?,12%,3,0%,O=C(NCCOC(=O)c1ccc(Cl)cc1)c1cccnc1
0.0%,-11%,/,/,COc1ccccc1NC(=O)C(C)N1C(=O)C2CCCCC2C1=O (centres undefined)
?,?,3,1%,CN(c1ccccc1)c1ccc(/C=N/NC(=O)CC#N)cc1
1.6%,-7%,/,/,O=C1c2ccccc2[C@@H]2C[C@@H](O)[C@H](Nc3cccc(Cl)n3)CCN12
2.1%,12%,-3,-60%,O=C(COc1ncnc2ccccc12)c1ccc(Cl)cc1
-6.6%,3%,/,-6%,O=C(CN1CCN(Cc2ccc(F)cc2)CC1)NCCc1ccccc1
2.2%,10%,-9,-38%,C/C(=N\NC(=S)NCc1ccccc1)c1ccccc1F
0.6%,15%,/,/,CCC(=O)c1ccc(OCC(=O)Nc2cccc(S(=O)(=O)N(C)c3ccccc3)c2)cc1
?,9%,/,0%,O=C(CCCc1ccccc1)NCCCc1ccccc1
4.9%,-5%,6,-37%,Cc1ccccc1/C(N)=N/OC(=O)c1ccc(F)cc1
-1.9%,-13%,/,/,O=C(/C=C/c1ccc(F)cc1)N1CCN(Cc2ccccc2)CC1
2.6%,-11%,/,0%,Cc1ccc(S(=O)(=O)NCCCCCC(=O)NCCc2ccccc2)cc1
5.7%,-1%,2,-8%,O=C(Nc1ccccc1)c1ncoc1-c1ccc(Cl)cc1
4.5%,26%,-8,/,COc1ccccc1C1CC(=O)Oc2cc(C)cc(C)c21 (centres undefined)
-0.6%,-16%,0,-1%,O=[N+]([O-])c1cccc2ncccc12
-0.2%,16%,-6,0%,Cc1ccc(S(=O)(=O)N2CCC(C(=O)N3CCC[C@H]3C(=O)NCc3ccccc3)CC2)cc1
-1.3%,3%,-6,-7%,CS(=O)(=O)N(CC(=O)NCCSC1CCCCC1)c1ccc2c(c1)OCO2
?,-23%,9,2%,O=C(NCN1C(=O)C2C3C=CC(C3)C2C1=O)OC1CCCCC1 (centres undefined)
-2.0%,6%,12,-2%,CC(=O)Nc1c(O)nc(SCC(=O)Nc2sc3c(c2C#N)CCCCCC3)[nH]c1=O
5.1%,-8%,/,/,COc1ccc(C(=O)NCC(C)NC(=O)c2ccc(OC)c(OC)c2)cc1OC (centres undefined)
-3.3%,6%,-13,-11%,COc1ccc(CCNC(=O)C/C(C)=N/NC(=O)C2CCCCC2)cc1OC
2.6%,0%,4,-10%,Cc1ccc(/C=N/NC(=O)c2cc(C)oc2C)cc1
1.6%,7%,/,1%,Cc1cccc(NS(=O)(=O)c2cc3c(cc2C)NC(=O)CO3)c1
0.4%,-3%,-16,-3%,O=C1NCCn2ccc(=O)cc21
?,-7%,-4,-10%,O=C1NN(c2ccccc2)C(=O)/C1=C/c1ccc(Sc2cccc3ccccc23)o1
2.5%,-2%,/,0%,CC(=O)Nc1ccc2c(c1)nc(CCNC(=O)c1ccco1)n2C
-3.4%,-16%,/,/,COc1ccc(C(=O)OCC(O)COC(=O)c2ccc(OC)cc2)cc1
0.1%,24%,-3,-2%,NC(=O)CSc1nnc(-c2ccoc2)o1
1.4%,-1%,/,/,CCc1noc(C)c1C(=O)Nc1ccc(C)c(S(=O)(=O)N2CCCCCC2)c1
-5.8%,6%,5,2%,COc1ccc(C(=O)OCC(=O)NCCN2C(=O)CSC2=O)cc1
0.2%,0%,-9,-5%,Cc1ccc(OCCCN(C)C)c(Br)c1
3.0%,-11%,-4,-14%,COc1ccc(/C=N/Nc2nc(Nc3ccccc3)nc(N3CCCCC3)n2)c(OC)c1
3.8%,1%,-10,0%,Cc1cc(C)c(C(N)=O)c(NC(=O)Nc2ccccc2)n1
-4.2%,-3%,/,/,CCN(C(=O)CSc1nc(N)cc(=O)[nH]1)C1CCS(=O)(=O)C1 (centres undefined)
-0.3%,-10%,1,-4%,COc1ccc(F)cc1S(=O)(=O)n1cc(C)nc1-c1ccccc1

# Entries shown so far containing a COOH group, in the order listed:
Rango complex inh,Rango release inh,GLA inh pH 4.5,miR-21 reporter,compound
-5.5%,15%,5,-6%,CN(C(=O)CSCC(=O)O)C1CCCCC1
-0.8%,2%,/,/,O=C(O)/C=C/C(=O)Nc1cccc2c1-c1ccccc1C2=O
?,?,-1,-3%,Cc1nc(S/C(=C/c2ccc(-c3cc(Cl)ccc3C)o2)C(=O)O)n[nH]1
2.6%,0%,-3[21.1 µM],-2%,Cc1ccc(-c2nc(-c3ccc(Cl)cc3)sc2CC(=O)O)c(C)c1

# Not all compounds are listed. The share of hits here may be higher or lower than overall.
